VACV Venus inh: inhibitors of vaccinia virus (Venus reporter). Vaccinia virus Venus reporter expression, fluorescence. Potency, µM (doses to about 36.5 µM), for inactives: at the highest dose activity change, negative = inhibition, most hits filed as inhibitors. actives 0.46% (n = 330,000); active means well fitted inhibition curve with a large enough effect; inconclusive means small, poorly fitted or top-dose-only effect; inactive means no such curve, though single readings can be large or run the other way; tested in A549 cells; further: nearly all actives have a fitted effect of over 30% in size; inactives centre near -10
VACV mCherry inh: inhibitors of vaccinia virus infection (mCherry reporter signal) | Potency, µM (series often up to 36.5 µM), for inactives: at the top dose activity change, negative = inhibition, usual class: inhibitors | Vaccinia virus mCherry reporter infection, fluorescence; about a quarter of the inactives have no number | actives 0.63% (n = 310,000) | AID 720579; active = well fitted inhibition curve with a large enough effect; inconclusive = small, poorly fitted or top-dose-only effect; inactive = no such curve, though single readings can be large or run the other way; tested in A549 cells; further: nearly all actives have a fitted effect of over 35% in size; inactives centre near -10
* = called active by the depositor; i = inactive; u = inconclusive; x = not tested or not shown; & = joins results of further samples; [ ] = dose if it differs, or a comment. On the % scale 0 is the no-effect control and ±100 the full control effect; potency means the concentration at half of the fitted maximal effect. Hits appear at their usual frequency. Share with any hit: about 0.87%.

Every second line gives: VACV Venus inh, VACV mCherry inh
COc1ccc(C(=O)n2ncc(C#N)c2N)cc1
→ -21%, -21%
CCOC(=O)C1CCCN(c2c(NCCN3CCCCC3CC)c(=O)c2=O)C1 (configuration not stated)
→ -2%, i
O=C(Nc1ccccc1)c1ccc(NC(=O)c2cccs2)cc1
→ -7%, 4%
Cc1ccc(C(=O)OCc2cn3ccccc3n2)cc1
→ -14%, x
O=C(NCC1CCOCC1)C1CCC(=O)N(Cc2cccc(C(F)(F)F)c2)C1 (configuration not stated)
→ -4%[7.34 µM], -14%[7.34 µM]
COc1ccc(CN(C)C(=O)c2ccc(NS(=O)(=O)c3ccc4[nH]c(=O)[nH]c4c3)cc2)c(OC)c1
→ -7%, -10%
CCN(CC)CCCC(C)NC1=NCCCCC1 (configuration not stated)
→ -11%, i
CCCCNC(=O)C[C@@H]1C[C@@]2(C(=O)OCC)CCC=C2N(Cc2cccc3ccccc23)C1=O
→ -13%, -23%
Cc1cc(NC(=O)c2ccc3c(c2)OCCO3)ccc1NC(=O)c1ccco1
→ -11%, -15%
COc1ccc(/C=C/C(=O)Oc2ccc(/C=N/NC(=O)c3ccccc3)cc2)cc1OC
→ -3%, -12%
O=C(Nc1cccnc1)c1ccc2ccccc2c1O
→ -15%, -23%
Cn1c(N)c(C(=O)COC(=O)CCCN2C(=O)c3ccccc3C2=O)c(=O)n(C)c1=O
→ 8%, -12%
COCCCNC(=O)CCCN1C(=O)CCn2nc(-c3cn(C)c4ccccc34)cc21
→ 0%, -8%
CCN(c1ccccc1)S(=O)(=O)c1cccc(C(=O)NCC(c2cccs2)N2CCOCC2)c1 (configuration not stated)
→ u, -13%
O=c1c2ccccc2nc(SCc2nc3ccccc3s2)n1Cc1ccco1
→ u, u
NC(=O)C(c1ccccc1)C1CCCC1 (configuration not stated)
→ -2%, x
Cc1ccc(Cn2c(SCC(N)=O)nc3c2c(=O)n(C)c(=O)n3C)cc1
→ -23%, i
C[C@H](CO)N1C[C@H](C)[C@@H](CN(C)C(=O)Nc2cccc(Oc3ccccn3)c2)OCc2cnnn2CCCC1=O
→ -7%, i
O=C(Cc1ccccc1[N+](=O)[O-])Nc1ccc2c(c1)OCCO2
→ 1%, -7%
CN1CCN(C(=S)c2ccc(OCC(=O)Nc3cccc(C(F)(F)F)c3)cc2)CC1
→ u, -19%[1.46 µM]
CC(=O)Nc1cccc(Oc2ccc(-c3noc(C)n3)cc2)c1
→ -27%, u
COc1ccc(-c2nc3scc(CCNC(=O)c4cc(OC)cc(OC)c4)n3n2)cc1
→ -18%, -20%
Cn1c(=O)c(=O)n(C)c2cc(NS(=O)(=O)c3ccc(Br)cc3)c(Cl)cc21
→ -7%, -13%
CCOc1ccc(N2CC(c3nc4ccccc4n3CC(C)C)CC2=O)cc1 (configuration not stated)
→ 3%, 1%
O=C(C[C@H]1C(=O)N(Cc2ccccc2)C[C@@H]1c1ccc(Br)cc1)Nc1ccc(Br)cc1
→ -27%, -21%
CC(C)NC(=O)NC(=O)CSc1nncs1
→ 0%, 1%
COc1ccc(OCC(O)CNC(=O)Nc2ccc(F)cc2)cc1 (configuration not stated)
→ -10%, -5%
COc1ccc2[nH]c(=O)c(CN(CC3CCCO3)C(=S)Nc3cccc(C)c3)cc2c1 (configuration not stated)
→ -7%, -13%
COc1ccc(-c2cc3ncc(-c4ccccc4)c(N)n3n2)cc1
→ u, u
Cc1ccc2nc(-c3ccsc3)c(Nc3ccccc3C)n2c1
→ -7%, -18%
CCN(CC)C(=O)C1=C(C)N(Cc2ccc(OC)cc2)C(=O)C(CC(=O)NC2CCCC2)C1 (configuration not stated)
→ -22%, -25%
O=C(C1CCN(c2nc3nonc3nc2N2CCCCC2)CC1)N1CCOCC1
→ 8%, i
COc1ccc(/C=N/NC(=O)CCC(=O)Nc2ccccc2)cc1OC
→ 4%, -18%
CCOC(=O)[C@@H]1[C@H]2COc3cc(OC)ccc3[C@H]2N2C(=O)N(c3cccc(C)c3)C(=O)[C@]12C
→ -11%, -20%
OC(COc1ccc(CNCCc2ccc(C(F)(F)F)cc2)cc1)CN1CCCCC1 (configuration not stated)
→ 10%, -13%
CC(=O)c1cc(-c2ccc(F)cc2)n(CCC(=O)Nc2cccc(C)n2)c1C
→ -17%, 0%
COc1ccc(CNC(=O)COC(=O)c2cc3ccccc3o2)cc1
→ -13%, i
O=C(COc1ccc2ccc(=O)oc2c1)NCCCn1ccnc1
→ -7%, 0%
CC(C)c1ccc(NC(=O)C2Cc3c(-c4ccc5c(c4)OCO5)ccnc3O2)cc1 (configuration not stated)
→ -12%, 18%
O=C(CSc1nc(C(F)(F)F)cc(=O)[nH]1)NCC1CCCO1 (configuration not stated)
→ -2%, -10%
COc1ccc2cc(C(=O)C3CCCN(C4CCOCC4)C3)ccc2c1 (configuration not stated)
→ -22%, -23%
COc1cc(OC)cc(C(=O)NCC(=O)Nc2ccc(-c3ccccc3)cc2)c1
→ -26%, u
CC(C)(C)OC(=O)NC(CNCc1ccccc1)Cc1ccccc1 (configuration not stated)
→ -27%, -5%
CCCCNC(=O)CCn1c(=O)c2ccccc2n(Cc2cccc(Cl)c2)c1=O
→ -9%, -12%
COc1ccc2sc(-c3ccc(SC)cc3)c(C#CCO)c2c1
→ u, u

Nothing new here: an excerpt of the list.
Every second line gives: VACV Venus inh, VACV mCherry inh
CC(C)c1ccc(NC(=O)C2Cc3c(-c4ccc5c(c4)OCO5)ccnc3O2)cc1 (configuration not stated)
→ -12%, 18%
O=C(CSc1nc(C(F)(F)F)cc(=O)[nH]1)NCC1CCCO1 (configuration not stated)
→ -2%, -10%
COc1ccc2cc(C(=O)C3CCCN(C4CCOCC4)C3)ccc2c1 (configuration not stated)
→ -22%, -23%
COc1cc(OC)cc(C(=O)NCC(=O)Nc2ccc(-c3ccccc3)cc2)c1
→ -26%, u
CC(C)(C)OC(=O)NC(CNCc1ccccc1)Cc1ccccc1 (configuration not stated)
→ -27%, -5%
CCCCNC(=O)CCn1c(=O)c2ccccc2n(Cc2cccc(Cl)c2)c1=O
→ -9%, -12%
COc1ccc2sc(-c3ccc(SC)cc3)c(C#CCO)c2c1
→ u, u

The listing continues.
Every second line gives: VACV Venus inh, VACV mCherry inh
CCS(=O)(=O)c1ccc(-c2cccc(NC(=O)c3ccco3)c2)nn1
→ -27%, -6%
O=C(N1CCCCC1)C1(S(=O)(=O)c2ccccc2)CC=CC1
→ -16%, i
CN(C)S(=O)(=O)c1cccc(NC(=O)c2cccc(S(=O)(=O)N3CCCCC3)c2)c1
→ -21%, u
O=C1c2cccc3cccc(c23)C(=O)N1c1cccnc1
→ 18%, 0%
Cc1c(NC(=O)COC(=O)c2ccc[nH]c2=O)c(=O)n(-c2ccccc2)n1C
→ -5%, i
O=S(=O)(CCc1ccccc1)/N=C/c1cccs1
→ -20%, x
O=C(O)c1ccccc1C(=O)OCc1c(-c2ccccc2)ncc2ccccc12
→ -2%, i
COc1cccc(NC(=O)CSc2nnc(-c3cc(C)n(-c4ccccc4)c3C)o2)c1
→ -17%, -28%
CC(=O)C1=C(c2ccccc2)N(C(C)=O)n2c(nnc2C2CCCCC2)S1
→ -6%[7.34 µM], -13%[7.34 µM]
O=C1CSC(=S)N1N=Cc1c(F)cccc1Cl
→ 2%, i
CCN(Cc1ccccc1)C(=O)CC1Oc2ccccc2NC1=O (configuration not stated)
→ -8%, i
CCOc1ccc(NC(=O)Cn2c(=O)n(CCCCC(=O)NCc3ccc4c(c3)OCO4)c(=O)c3ccccc32)cc1
→ u, u
COc1ccc(S(=O)(=O)N2CCCCCC2)cc1C(=O)OCC(=O)NC(C)(C)C
→ -11%, i
Cc1nn(CCC(=O)O)c(C)c1C
→ -2%, -13%
CCNC(=O)C/C(C)=N/NC(=O)C1CCCCC1
→ -2%, -5%
COc1cc(OC)c2nc(-c3cc4c(c(OC)c3)OCCN(Cc3cn(C)nc3C)C4)cc(C)c2c1
→ -4%, -16%
CC(C)(C)c1ccc(C(=O)COC(=O)CN2C(=O)NC3(CCCC3)C2=O)cc1
→ -5%, i
O=C(NCC(=O)N1CCN(C(c2ccccc2)c2ccccc2)CC1)c1ccccc1Br
→ -28%, -7%
C=CCn1c(N)c(C(=O)Nc2ccccc2OC)sc1=S
→ -13%, -14%
Cc1ccc(C(=O)N/N=C\c2ccc([N+](=O)[O-])o2)cn1
→ u, -25%
CCOc1cc(CNc2ncnc3nc[nH]c23)ccc1OC
→ -5%, i
CC(=O)C[C@H]1c2ccccc2S(=O)(=O)N1c1ccccc1
→ 0%&-17%, -4%
CCn1cc(C(C)(C)C)c(C#N)c1NC(C)=O
→ -10%, x
CN1OC[C@@H]2CN[C@H](c3ccc(-c4ccccc4)cc3)C[C@@H]21
→ -17%, 0%
O=C(Nc1ccccn1)c1ccc(Br)s1
→ -10%, i
Cc1ccc2c(c1)C1CN(C)CCC1N2S(=O)(=O)c1ccc(Oc2ccc([N+](=O)[O-])cc2)cc1 (configuration not stated)
→ -17%, u
CCC1CCCCN1CCCNC(=O)c1cc2c(=O)n(CC)c3ccccc3c2s1 (configuration not stated)
→ -4%, 8%
C=C1C2CCC3[C@@](CC[C@@H]4C(C(=O)O)CC(OC5OC(CO)C(OS(=O)(=O)O)C(OS(=O)(=O)O)C5OC(=O)CC(C)C)C[C@]34C)(C2)C1O (some centres not stated)
→ -12%, i
O=C(NNC(=O)c1ccccc1O)c1ccccc1O
→ u, 16µM*
COc1ccc(N2C(=O)N3[C@H](c4ccc(Cl)cc4)[C@@H]4C(=O)N(C5CCCCC5)C(=O)[C@@H]4[C@]3(C)C2=O)cc1
→ u, -14%

4 structures out of the list, sorted by heavy-atom count, ascending.
Every second line gives: VACV Venus inh, VACV mCherry inh
C=CCn1c(N)c(C(=O)Nc2ccccc2OC)sc1=S
→ -13%, -14%
CCOc1cc(CNc2ncnc3nc[nH]c23)ccc1OC
→ -5%, i
O=C(NCC(=O)N1CCN(C(c2ccccc2)c2ccccc2)CC1)c1ccccc1Br
→ -28%, -7%
C=C1C2CCC3[C@@](CC[C@@H]4C(C(=O)O)CC(OC5OC(CO)C(OS(=O)(=O)O)C(OS(=O)(=O)O)C5OC(=O)CC(C)C)C[C@]34C)(C2)C1O (some centres not stated)
→ -12%, i

Continued.
Every second line gives: VACV Venus inh, VACV mCherry inh
COC(=O)C1=C(c2ccc(F)cc2OCc2ccccc2)C[C@@H]2CC[C@H]1N2C(=O)N1CCOCC1
→ -13%, -2%
COc1ccc(/C=N/NC(=O)Cc2ccc(Cl)cc2)cc1OC
→ -2%, -9%
CCOC(=O)N1CCN(C(=O)C2CCN(C(=O)c3ccc([N+](=O)[O-])cc3)CC2)CC1
→ -9%, -13%
O=C(NCCC1CCCCN1S(=O)(=O)c1ccc(F)cc1)C(=O)Nc1ccccc1 (configuration not stated)
→ -10%, -18%
COc1ccc(S(=O)(=O)N2CCCOC2CNC(=O)C(=O)NCc2ccccn2)cc1 (configuration not stated)
→ -4%, -11%
CC(=O)Nc1ccccc1C(=O)C(=O)Nc1cccc(C(=O)NCC2CCCO2)c1 (configuration not stated)
→ 0%, -12%
COc1cc(/C=C/C(=O)Nc2nnc(CC(C)(C)C)s2)cc(OC)c1OC
→ -12%, -16%
COC(=O)[C@H](Cc1ccc(O)cc1)NC(=O)Cn1cnc2c(OCc3ccccc3)ncnc21
→ -9%, i
COc1ccc(C2NC(=S)NC3=C2CCCC3=C2SCCS2)cc1 (configuration not stated)
→ -10%, -5%
COCC(C)OC(=O)c1c(N)n(CC(C)C)c2nc3ccccc3nc12 (configuration not stated)
→ u, u
O=C(CN1CCCc2ccccc21)Nc1cccc(S(=O)(=O)N2CCOCC2)c1
→ -8%, -16%
CCCCNC(=O)Nc1ccccc1CC
→ -8%, i
COc1cc2c(cc1N)-c1ccc(N)cc1C2=O
→ 0%, i
Cc1cccc(N2CCN(C(=O)CN3C(=O)COc4ccc(S(=O)(=O)N5CCOCC5)cc43)CC2)c1C
→ 5%, -4%
CCN(CC)N=Nc1ccc(S(=O)(=O)Nc2nc(C)cc(C)n2)cc1
→ -11%, i
N#CCCCc1cc2ccccc2cn1
→ 0%, i
Cc1cc(C)cc(C(=O)Oc2coc(CSc3nnc(NC(=O)C4CC4)s3)cc2=O)c1
→ -28%, u
C/C(=N\NC(=O)CCC(=O)NCc1ccccc1)c1ccc([N+](=O)[O-])cc1
→ -18%, -9%
Cc1ccc2nc(C)c3c(c2c1)SCC3
→ -12%, -11%
Cn1cc(S(=O)(=O)Nc2cccc3ccccc23)c(=O)n(C)c1=O
→ -16%, -14%
CC(NC(=O)COC(=O)CSc1ccc(F)cc1)c1ccc(F)cc1 (configuration not stated)
→ -16%, i
Cc1nc(SCc2ccccc2)c(C(F)(F)F)c(=O)[nH]1
→ -9%, i
CCCCCCC(=O)Nc1nc(C)c(-c2csc(Nc3cc(Cl)ccc3OC)n2)s1
→ u, u
Nc1ncc(-c2cc3ccccc3oc2=O)s1
→ -12%, -24%
COc1ccc(-c2nnc(CSc3ncnc4sc5c(c34)CCC5)o2)cc1OC
→ -7%, 0%
CCOC(=O)c1cc(-c2cccs2)nn1CCC#N
→ 3%, -6%
NS(=O)(=O)c1cccc(NC(=O)COC(=O)CC2Sc3ccccc3NC2=O)c1 (configuration not stated)
→ -5%, i
O=C(NCCCN1CCOCC1)C1CCN(S(=O)(=O)c2ccccc2)CC1
→ -13%, i
Cc1cc(C)nc(NC(=O)/C=C/c2ccc3c(c2)OCO3)c1
→ -8%, -21%
